Screens (PubChem)
TRPML1 agonist – qHTS for Agonists of the Human Mucolipin Transient Receptor Potential 1 (TRPML1) | activation, % (test concentration not listed) | AID 624414, 2012 | actives 0.12% (n = 410,000) | TRPML1-expressing cells, Ca2+ dye fluorescence, FDSS; host cell line not named in the record; reference of the full effect not given here; in the data active = activation above about 50%; inconclusive = about 30% to 50%; inactive = below about 30%; note: 0% is about no effect; the text of the record puts the active cut at 80%
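Tet-induced TRPML1-DL cells, 1,500 per well, cultured overnight, were loaded with a no-wash Ca2+ dye for 45–90 min. Calcium fluorescence was recorded on the FDSS for 110 s after compound addition, before the EC80 agonist (4 uM 54-4) was added.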
TRPML1 blocker – qHTS for Inhibitors of the Human Mucolipin Transient Receptor Potential 1 (TRPML1). Mucolipin-1 (Homo sapiens), Q9GZU1. TRPML1-inducible cells, Ca2+ dye fluorescence, FDSS; stronger effect = lower value; inhibition of EC80 agonist-evoked calcium signal. activity change, negative = inhibition, % (no concentration beside the values). actives 0.02% (n = 390,000); in the data active means activity change below about -50%; inconclusive means about -30% to -50%; inactive means above about -30%;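 note: stimulus is agonist 54-4 at its EC80 concentration; % is set by controls: 0 for no effect and ±100 for the full control effect; compound concentration not given in the record; the text of the record puts the active cut at -80%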
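Calcium fluorescence in TRPML1-DL cells induced overnight with Tet: a 110 s read after compound pin addition, then a 110 s antagonist read after challenge with 54-4 at 4 uM final (EC80).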
Six1-Eya2 blk – qHTS Assay for Inhibitors of the Six1/Eya2 Interaction. AlphaScreen GST-Six1/His-Eya2 binding, biochemical; stronger effect = lower value; control for the full effect not named in the record. actives 0.56% (n = 360,000). activity change, % (concentration not given with the values). Homeobox protein SIX1 (Homo sapiens) + Protein phosphatase EYA2 (Homo sapiens), …. AID 651725, 2012; in the data active = activity change below about -65%; inconclusive = about -30% to -65%; inactive = above about -30%; note: % is set by controls: 0 for no effect and ±100 for the full control effect
Target sequence (O00167 whole entry, looked up): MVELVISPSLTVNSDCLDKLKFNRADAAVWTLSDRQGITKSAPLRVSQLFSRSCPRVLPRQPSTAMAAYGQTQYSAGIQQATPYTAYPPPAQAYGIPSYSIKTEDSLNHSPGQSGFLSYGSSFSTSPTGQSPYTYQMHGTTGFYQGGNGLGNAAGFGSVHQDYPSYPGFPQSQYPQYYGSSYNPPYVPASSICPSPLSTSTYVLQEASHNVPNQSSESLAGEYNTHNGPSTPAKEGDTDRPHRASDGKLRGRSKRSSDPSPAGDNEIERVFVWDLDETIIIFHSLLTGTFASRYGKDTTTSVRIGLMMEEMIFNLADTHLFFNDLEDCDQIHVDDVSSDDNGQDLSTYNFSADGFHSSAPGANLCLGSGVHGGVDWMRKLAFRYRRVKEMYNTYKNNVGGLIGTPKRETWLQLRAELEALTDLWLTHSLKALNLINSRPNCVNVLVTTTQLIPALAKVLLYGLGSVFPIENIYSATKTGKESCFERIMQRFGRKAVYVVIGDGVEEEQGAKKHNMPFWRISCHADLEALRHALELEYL
Target sequence (Q15475 whole entry, looked up): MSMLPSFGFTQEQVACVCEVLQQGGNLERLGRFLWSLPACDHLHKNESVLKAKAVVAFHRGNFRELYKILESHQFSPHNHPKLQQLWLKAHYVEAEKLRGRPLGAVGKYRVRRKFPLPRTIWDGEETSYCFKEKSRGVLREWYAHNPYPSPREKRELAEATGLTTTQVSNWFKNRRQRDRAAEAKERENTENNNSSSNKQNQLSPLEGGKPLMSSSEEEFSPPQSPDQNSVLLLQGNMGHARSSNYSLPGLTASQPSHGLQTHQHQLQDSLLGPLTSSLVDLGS
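Homogeneous AlphaScreen proximity assay pairing GST-Six1 with His-tagged Eya2 (added as 5X mix: 250 nM and 500 nM) in 50 mM Tris pH 8.0, 300 mM NaCl, 1 mM TCEP. Glutathione donor and nickel acceptor beads; 1 h, 37 °C, dark.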
D2 PAM – Beta-Arrestin HTS for Positive Allosteric Modulators of the Human D2 Dopamine Receptor: Potentiators | D(2) dopamine receptor (Homo sapiens), P14416 | DiscoveRx D2 beta-arrestin cells, luminescence, 90 min; 100% = 57 uM dopamine signal | potentiation, % (test concentration not listed) | actives 0.23% (n = 360,000); active = potentiation of 50% or more; inconclusive = 30% to 50%; inactive = 30% or less;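 note: compound concentration not given in the record; tested on top of an EC20 dose of dopamine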
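PathHunter D2 cells, attached overnight at 37 deg C, received compound in DMSO plus dopamine at EC20 (50 nM final) for 90 min at 37 deg C. Beta-arrestin recruitment was read as luminescence after 1 h with detection reagent at ambient temperature.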
TRPV1 PAM – HTS Assay for Compounds that Act as Potentiators of the Vanilloid Receptor 1 | Transient receptor potential cation channel subfamily V member 1 (Homo sapiens), Q8NER1 | TRPV1-expressing cells, Fluo-8 calcium influx, capsaicin EC20 potentiation; host cell line not named in the record; control for the full effect not named in the record | potentiation, % at 8.33 µM | actives 0.02% (n = 320,000); active means potentiation above 80%; inconclusive means 30% to 80%; inactive means below 30%; note: 0% is about no effect
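Cells expressing TRPV1 were dye-loaded with Fluo-8 and read kinetically: 10 s baseline, 3 min after compound (agonist portion), then 2 min after EC20 capsaicin (allosteric enhancer portion). Calcium-bound dye fluorescence at 480/520 nm.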
CtBP-E1A blk – qHTS Assay for Inhibitors of the CtBP/E1A Interaction; CtBP / adenovirus E1A interaction (AlphaScreen); AlphaScreen GST-E1A/His-CtBP binding, 1536-well; stronger effect = lower value; control for the full effect not named in the record; activity change, % (concentration not given with the values); actives 0.49% (n = 340,000); AID 651724, 2012; in the data active means activity change below about -65%; inconclusive means about -30% to -65%; inactive means above about -30%; note: % is set by controls: 0 for no effect and ±100 for the full control effect
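Homogeneous bead-based format: GST-tagged E1A captured on glutathione donor beads, His-tagged CtBP on nickel acceptor beads; compounds precede bead addition by 2 h at 37 °C.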
* = called active by the depositor; ? = inconclusive; . = no result given; & = joins results of further samples.

SMILES	TRPML1 agonist	TRPML1 blocker	Six1-Eya2 blk	D2 PAM	TRPV1 PAM	CtBP-E1A blk
O=C(CSc1nnc(COc2cccc3cccnc23)o1)N1CCc2ccccc21	-0.5	-6.1	0.6	2.0	-1.8	9.4
COc1ccccc1NC(=O)COc1ccc(Br)cc1CNCCCN1CCOCC1	1.4	-5.4	-2.2	3.5	3.2	-1.3
C[C@H](CO)N1C[C@H](C)[C@@H](CN(C)C(=O)Nc2ccc(C(F)(F)F)cc2)Oc2c(NC(=O)NC3CCCCC3)cccc2C1=O	0.2	4.7	-3.6	-5.7	.	0.7
Cc1ccc(S(=O)(=O)Oc2ccc(C3C4=C(CCCC4=O)OC4=C3C(=O)CCC4)cc2)cc1	2.0	-0.2	0.6	-2.6	-12.6	-0.5
CCCNC(=O)c1ccc(COc2ccc(Cl)cc2)o1	1.4	-22.3	4.7	-0.4	29.2	2.1
CCCCn1nnc(N(C(=O)c2cccs2)C(=O)c2cccs2)n1	0.5	12.0	-6.4	-20.4	-10.1	.
COc1ccc(NC(=O)CC(C)(C)C)c([N+](=O)[O-])c1	-0.1	-1.1	-4.2	-4.2	24.1	-3.0
CC1CCN(C(=O)CCCOc2cc(=O)n(C)c3ccccc23)CC1	0.1	3.9	-2.9	16.9	3.1	1.2
O=[N+]([O-])c1ccc(N2CCN(c3ccccc3F)CC2)c(S(=O)(=O)N2CCOCC2)c1	-0.4	6.1	-14.4	14.3	9.5	-11.3
CN1CCN(c2ccc(NC(=O)c3cccc(OCc4ccccc4)c3)cc2)CC1	0.3	-1.2	-16.9	-38.0	-6.3	-18.7
CCCCNC(=O)CN1C(=O)COc2ccc(S(=O)(=O)N3CCCCCC3)cc21	1.2&-0.9	0.9&-21.4	7.7	-6.3	?	.
CCN(CC)C(=O)Cn1cc(S(=O)(=O)CC(=O)Nc2ccccc2F)c2ccccc21	-0.5	13.5	1.4	-10.1	.	17.6
c1ccc(-c2nc3c4ccccc4ccn3c2CN2CCCCC2)cc1	2.6	-9.5	5.4	-28.0	-22.3	2.2
CCCCn1c(N(CCOC(C)=O)C(C)=O)nc2ccccc21	-0.7	-3.4	1.0	-10.0	-12.7	7.1
Cc1onc(-c2c(F)cccc2Cl)c1C(=O)N(C)C1CCCCC1	0.8	6.6	8.1	-5.9	-22.8	1.9
Cc1ccc(N=Nc2ccc(O)cc2)c(Br)c1	0.6	-0.5	?	-23.7	13.2	-19.5
CCOc1ccccc1CN1CCN(CC2=Cc3cc(OC)ccc3OC2)CC1CCO (configuration not stated)	-0.1	-4.2	-15.2	-28.5	1.3	.
O=C(Nc1nc2ccccc2[nH]1)c1cccc(Cl)c1	-0.2	-2.8	8.4	-20.5	9.7	.
COc1ccc(/C=C/C(=O)NCc2cnn(C)c2C)cc1COc1ccc(Br)cc1	-0.3	4.6	-3.0	-9.2	-11.0	1.7
Cc1cc(C)cc(NC(=O)COC(=O)Cc2ccccc2F)c1	-1.2	-14.3	2.8	11.3	-18.7	.
COc1ccc(OCCSc2nnc(Cc3cccc4ccccc34)n2N)cc1	3.9	35.2	-8.6	-11.1	-12.3	-17.0
CCC(C)NC(=O)CSc1ccc(NC(C)=O)cc1 (configuration not stated)	0.1	-18.0	4.8	-13.0	1.5	6.7
Cc1cc(NC(=O)CSCC(=O)NCc2cccc(C(F)(F)F)c2)no1	-0.6	17.3	-1.5	-9.6	7.8	5.0
COC(=O)C1=C(C)C(c2ccc(OC)cc2OC)NC(=O)N1 (configuration not stated)	0.0	-1.8	2.7	5.7	4.9	4.6
COc1ccc(S(=O)(=O)NCC(=O)N(CC(=O)NCC2CCCO2)c2ccccc2C)cc1 (configuration not stated)	0.0	-13.9	2.3	-21.5	-10.2	-7.5

Some of these compounds in order of their number in TRPML1 blocker, lowest first.
structure	TRPML1 blocker
Cc1ccc(N=Nc2ccc(O)cc2)c(Br)c1	-0.5
CC1CCN(C(=O)CCCOc2cc(=O)n(C)c3ccccc23)CC1	3.9
CCN(CC)C(=O)Cn1cc(S(=O)(=O)CC(=O)Nc2ccccc2F)c2ccccc21	13.5

Next compounds follow:
SMILES	TRPML1 agonist	TRPML1 blocker	Six1-Eya2 blk	D2 PAM	TRPV1 PAM	CtBP-E1A blk
CCN(CC)C(=O)CSc1nnc(-c2ccco2)n1N	-0.3	-20.6	-0.9	0.2	6.4	10.1
CC1=NN(c2nc(-c3ccccc3)cs2)C(=O)C1	-1.0	10.5	-24.8	-24.9	7.5	-3.8
CC(=O)c1cccc(NC(=O)C2CC(=O)N(c3cccc(C)c3C)C2)c1 (configuration not stated)	-0.6	-5.2	-1.8	-10.9	-4.4	-7.1
CCOC(=O)c1c(C)[nH]c(C(=O)OC(C)C(=O)NC2(C#N)CCCCC2)c1C (configuration not stated)	-0.7	-0.9	-5.0	-8.9	.	-3.0
CCC(Sc1nc2ccsc2c(=O)n1Cc1ccc(C(=O)O)cc1)C(=O)Nc1cccc(OC)c1 (configuration not stated)	-1.0	0.7	-5.8	3.5	.	-5.4
Cc1ccc(/C=C2\SC(=S)N(CCC(=O)NNS(=O)(=O)c3ccccc3)C2=O)cc1	0.6	-3.3	2.0	-1.9	-2.3	-4.7
Nc1nc(N)nc(-c2cccc(Cl)c2Cl)n1	-0.5	16.3	3.3	-12.0	-28.7	7.2
O=C(NNc1c(Cl)cc(Cl)cc1Cl)c1n[nH]c(=O)c2ccccc12	-0.5	3.9	-9.1	-15.0	6.8	.
CCN(CC)CCNC(=O)/C(=C\c1cccn1C)NC(=O)c1cccs1	0.2	-17.6	-1.0	-1.0	-2.0	2.9
CCCCN(CCCC)Cc1cc(=O)oc2ccccc12	-0.3	-29.1	-4.9	-10.5	.	12.4
CCOC(=O)c1sc(=S)n(Cc2ccccc2)c1C	2.6	20.2	-2.4	0.4	21.0	6.2
C=CCOC(=O)C1=C(C)NC(SCC(N)=O)=C(C#N)C1c1ccc(C)cc1 (configuration not stated)	2.1	18.8	2.4	-5.3	.	-0.2
COc1ccc(C2N(C(C)=O)CCCN2S(=O)(=O)c2ccc(C)cc2)cc1 (configuration not stated)	-0.3	3.6	2.9	-1.0	-3.3	0.0
CN(C)c1nc2c(c(=O)n(C)c(=O)n2C)n1Cc1ccccc1	0.5	-3.0	19.3	-8.9	0.6	1.7
Cc1noc(NC(=O)c2cccc(Cl)c2Cl)c1C#N	0.8	4.5	3.6	-5.6	8.5	.
Cc1ccc(Nc2c([N+](=O)[O-])c(=O)oc3ccccc23)cc1	-0.2	9.4	-7.2	-17.5	-5.2	-3.5
NC(=O)C1CCN(C(=O)CN(c2cccc(Cl)c2)S(=O)(=O)c2ccccc2)CC1	0.9	4.3	12.8	-17.2	-0.4	7.4
NS(=O)(=O)c1cccc(NC(=O)COC(=O)CC2Sc3ccccc3NC2=O)c1 (configuration not stated)	-0.3	-18.1	-0.9	13.8	.	-3.2
Cn1c(C(=O)O)c(CC(=O)Nc2ccc(F)cc2F)c2ccccc21	0.9	11.1	-5.9	-5.0	?	-6.2
CC(C)Oc1cc(N)c(Cl)cc1Cl	1.8	-8.4	14.5	-3.2	5.1	4.7
COc1ccc(N2CCN(CCNC(=O)CCCn3c(=O)[nH]c4cc(Cl)ccc4c3=O)CC2)cc1	-0.8	17.2	5.8	-1.9	-17.4	-7.6
CCOC(=O)c1c(C)[nH]c(C)c1S(=O)(=O)N(C)CC(=O)NCc1ccc(F)cc1	-0.8	2.1	0.5	6.9	-3.2	4.1
Cc1cc2c3c(c1)C(C)(c1ccccc1)CC(C)(C)N3C(=O)C21C(C#N)=C(N)OC2=C1C(=O)CC(C)(C)C2 (configuration not stated)	0.0	-2.8	-10.3	-6.2	8.9	-9.7
O=C(/C=C/c1ccco1)NCc1ccc2c(c1)OCO2	-0.7	10.8	-6.7	-8.4	-19.0	-9.3
CC(=O)Nc1ccc(S(=O)(=O)NCc2ccc(C(=O)NCc3ccc(Cl)cc3)cc2)cc1	-0.2&-0.3	-14.4&-2.7	-3.3	-16.6	-0.6	6.5

Just Six1-Eya2 blk and TRPML1 blocker, for 3 of the compounds above:
Molecule | Six1-Eya2 blk | TRPML1 blocker
C=CCOC(=O)C1=C(C)NC(SCC(N)=O)=C(C#N)C1c1ccc(C)cc1 (configuration not stated) | 2.4 | 18.8
COc1ccc(C2N(C(C)=O)CCCN2S(=O)(=O)c2ccc(C)cc2)cc1 (configuration not stated) | 2.9 | 3.6
CN(C)c1nc2c(c(=O)n(C)c(=O)n2C)n1Cc1ccccc1 | 19.3 | -3.0

(cont.)
SMILES	TRPML1 agonist	TRPML1 blocker	Six1-Eya2 blk	D2 PAM	TRPV1 PAM	CtBP-E1A blk
N#Cc1ccccc1NC(=O)Nc1ccccc1	0.5	3.9	-0.3	-3.0	7.1	-0.4
O=S(=O)(N/N=C1/CC(c2ccccc2)Oc2ccccc21)c1ccccc1 (configuration not stated)	-0.9	15.8	-7.1	-9.2	.	0.4
CC(C)CN1C(=O)NC(NC(=O)c2cccs2)(C(F)(F)F)C1=O (configuration not stated)	-0.7	1.1	5.4	-7.8	-8.4	2.4
CC1CC(C)CN(CCCNC(=O)CN2C(=O)c3cccnc3Oc3ccc(Cl)cc32)C1 (configuration not stated)	-0.5	-10.0	-1.1	-41.3	18.3	-12.4
O=C(NCc1ccccn1)C(=O)Nc1ccccc1	-0.8	-1.9	-3.1	-3.4	-2.2	11.6
COc1ccc(/C=N\n2nnc3ccccc32)cc1	1.7	26.0	0.3	-2.8	-3.2	14.9
Nc1ccc2nc(CCCCCCc3nc4ccc(N)cc4[nH]3)[nH]c2c1	0.1	-10.8	-28.0	-11.4	15.6	-5.1
CCOc1ccc(NC(=O)CC2C(=O)N(c3ccc(OC)cc3)C(=O)N2CCc2ccc(OC)c(OC)c2)cc1 (configuration not stated)	0.7	24.2	-6.0	-1.3	3.4	0.5
COc1ccc(-c2noc(-c3ccoc3C)n2)cc1	-0.4	29.8	20.1	-16.0	-12.4	.
C[C@@H](C(=O)Nc1ccc2c(c1)OCO2)n1c(=O)[nH]c2ccccc2c1=O	-0.2	-8.4	5.4	2.2	3.2	13.0
CCOC(=O)c1cc2ccccc2n1C1CCN(C)CC1	0.3	.	-1.7	.	.	-7.3
CN(C)S(=O)(=O)Nc1ccc(Br)cc1F	0.2	-4.6	11.3	1.3	4.4	-1.1
CN(CC1COCCO1)c1nc2nonc2nc1N1CCSCC1 (configuration not stated)	0.0	10.1	1.6	-4.4	3.5	4.1

Random excerpt: 2 records from the list, in no set order.
SMILES	TRPML1 agonist	TRPML1 blocker	Six1-Eya2 blk	D2 PAM	TRPV1 PAM	CtBP-E1A blk
CCOC(=O)c1cc2ccccc2n1C1CCN(C)CC1	0.3	.	-1.7	.	.	-7.3
CC1CC(C)CN(CCCNC(=O)CN2C(=O)c3cccnc3Oc3ccc(Cl)cc32)C1 (configuration not stated)	-0.5	-10.0	-1.1	-41.3	18.3	-12.4
